Vaccinia mCherry – inhibitors of vaccinia virus infection (mCherry reporter signal); Vaccinia virus mCherry reporter infection, fluorescence; about a quarter of the inactives have no number; Potency, µM (series often up to 36.5 µM), without a hit: at the highest dose activity change, negative = inhibition, hits mostly inhibitors; hit rate 0.63% among 310,000; AID 720579; active = well fitted inhibition curve with a large enough effect; inconclusive = small, poorly fitted or top-dose-only effect; inactive = no such curve, though single readings can be large or run the other way; tested in A549 cells; note: nearly all actives have a fitted effect of over 35% in size; inactives centre near -10
Vaccinia Venus – vaccinia inhibition (Venus reporter); Vaccinia virus Venus reporter expression, fluorescence; Potency, µM (highest dose often 36.5 µM), for inactives: top-dose activity change, negative = inhibition, most hits filed as inhibitors; hit rate 0.46% among 330,000; active means well fitted inhibition curve with a large enough effect; inconclusive means small, poorly fitted or top-dose-only effect; inactive means no such curve, though single readings can be large or run the other way; tested in A549 cells; note: nearly all actives have a fitted effect of over 30% in size; inactives centre near -10
* marks the source's active call; other numbers are inactive results; i = inactive; ? = inconclusive; nt = not tested or not shown; & = joins results of further samples. % is set by controls: 0 for no effect and ±100 for the full control effect; potency is the fitted concentration of half-maximal effect.

SMILES | Vaccinia mCherry | Vaccinia Venus
COc1ccc(CCNC(=O)c2cnc3sc(N4CCOCC4)nn3c2=O)cc1 | -6% | 3%
COc1ccc(S(=O)(=O)N2CCC(C(=O)NCC(=O)Nc3c(C)cccc3C)CC2)cc1OC | i | -25%
CSc1nc(C)cc(Oc2ccc(OCC(N)=O)nn2)n1 | -1% | -13%
CCc1nn(CC(=O)Nc2ccc(N(CC)CC)cc2C)c(=O)c2cc3sccc3n12 | -7% | -13%
O=C(Nc1nc2ccc([N+](=O)[O-])cc2s1)c1c(F)cccc1F | -11% | ?
CCOC(=O)Cc1cc(=O)n2[nH]cc(-c3cccc(Br)c3)c2n1 | 5% | 10%
O=C(C1CCCN(S(=O)(=O)c2cccc3cccnc23)C1)N1CCc2ccccc21 (centres undefined) | -17% | -15%
COc1ccccc1N1CCN(C(=O)c2ccccc2SCC(=O)NCc2ccco2)CC1 | -5% | -20%
Cc1ccc2c(n1)sc1c(N)ncnc12 | ? | -29%
Cc1ccc(NC(=O)c2c(C)oc3ccc(O)c(CN4CCCCC4)c23)c(C)c1 | -17% | -12%
CCc1ccc(OCC(=O)NC(C)C)cc1 | i | -4%
S=c1c2[nH]cnc2ncn1CCSc1ncnc2nc[nH]c12 | i | -7%
COc1ccc(N(C(=O)c2ccccc2C)S(=O)(=O)c2ccc(C)cc2)cc1 | -20% | -10%
CCCCCCCCCOC(=O)C(CC(=O)O)N1CCOCC1 (centres undefined) | nt | -11%
CC(=O)c1c(C)[nH]c(C(=O)OCC(=O)Nc2ccc([N+](=O)[O-])cc2Cl)c1C | -7% | 0%
CCc1noc(C)c1C(=O)NNC(=O)c1ccccc1F | i | -8%
CCOC(=O)c1sc(C)c2c1NC(C)(c1ccccc1)NC2=O (centres undefined) | -16% | -17%
Cc1cc(=O)n2[nH]c(-c3sccc3-n3c(C)ccc3C)cc2n1 | -7% | -8%
COCC(=O)Nc1cc(C(=O)N2CC3CCC2C3)c2c(c1)nc(-c1ccncc1)n2C (centres undefined) | -14% | -1%
O=c1cnc2ccccc2n1CC1CCCCC1 | 0% | -13%
CCOc1ccc(NC(=O)c2cc([N+](=O)[O-])ccc2N2CCOCC2)cc1 | -13% | -20%
Cc1ccc(C(C(=O)NC2CCCC2)N(Cc2ccco2)C(=O)CCC(=O)Nc2cc(C)on2)cc1 (centres undefined) | -11% | -7%
COc1ccc(C2CC(c3ccc(Cl)cc3Cl)Nc3nc(N)nn32)cc1OC (centres undefined) | 0% | 3%
CC1(C(=O)NS(=O)(=O)c2cccc(Cl)c2)CCN1C(=O)C1(c2ccccc2)CC1 (centres undefined) | i | 3%
COc1ccc(NC(=O)c2ccccc2SC)c(OC)c1 | i | -10%
Cc1c(C(=O)NCC2(c3ccccc3)CCOCC2)cnn1-c1nccc(-c2ccco2)n1 | -4% | 0%
Cc1ccc(C2CC(c3cccs3)=NN2C(=O)c2ccc(Br)o2)cc1 (centres undefined) | nt | ?
NC(=O)c1ccc(NC(=O)COC(=O)c2ccc(Br)c(S(=O)(=O)N3CCOCC3)c2)cc1 | -16% | -28%
C=CCn1c(CSCc2ccc(C)cc2)nnc1SCC(=O)NCc1ccccc1 | nt | 2%
COc1ccccc1NC(=O)CSc1oc(-c2ccccc2)nc1S(=O)(=O)c1ccc(C)cc1 | -22% | -12%

Exported field by field: four of the compounds above.
O=C(C1CCCN(S(=O)(=O)c2cccc3cccnc23)C1)N1CCc2ccccc21 (centres undefined)
  Vaccinia mCherry: -17%; Vaccinia Venus: -15%

COCC(=O)Nc1cc(C(=O)N2CC3CCC2C3)c2c(c1)nc(-c1ccncc1)n2C (centres undefined)
  Vaccinia mCherry: -14%; Vaccinia Venus: -1%

Cc1ccc2c(n1)sc1c(N)ncnc12
  Vaccinia mCherry: ?; Vaccinia Venus: -29%

CCCCCCCCCOC(=O)C(CC(=O)O)N1CCOCC1 (centres undefined)
  Vaccinia mCherry: nt; Vaccinia Venus: -11%

Following part.
SMILES | Vaccinia mCherry | Vaccinia Venus
CCOc1c(Cl)cc(C2NC(=O)NC(C)=C2C(=O)NCc2ccccc2)cc1OC (centres undefined) | -13% | -2%
O=C(COC(=O)C1CCN(S(=O)(=O)c2ccccc2)CC1)NC(=O)c1ccc(OC(F)F)cc1 | -16% | -2%
Cc1[nH]c2ccccc2c1C(=O)NS(=O)(=O)Nc1ccccc1 | -1% | -9%
CN(CC(=O)NCc1ccccc1Cl)CC(=O)Nc1cccc(F)c1 | i | -7%
N=C1C(c2nc(-c3ccc(Cl)cc3)cs2)=C(O)CN1CCCN1CCOCC1 | ? | ?
CCN(CC)CCOC(=O)C12CC3CC(CC(C3)C1)C2 | -5% | 9%
Cc1nc(SC(C)C(=O)NCC2CCCO2)c2cc(-c3ccccc3)sc2n1 (centres undefined) | 5µM* | -2%
CN(C)/C=C/C(=O)c1ccc(Oc2ncccn2)cc1 | -3% | -2%
O=C(O)c1cccc(S(=O)(=O)NCCC(c2ccccc2)c2ccccc2)c1 | -8% | -5%
Cc1ccsc1C(=CCCN1CCC[C@@H](C(=O)O)C1)c1sccc1C | i | -6%
CCN(C(=O)CN1CCOCC1)C1(C)C(=O)c2ccccc2C1=O | -1% | 6%
CCc1nnc(NC(=O)CSc2ccc(-c3nc4ccc(C)cc4[nH]3)cn2)s1 | 18% | -7%
COc1ccc(C(C)=O)cc1CN1C(=O)NC2(CCCCCCC2)C1=O | 3% | 4%
CCOP(=O)(OCC)c1nc(-c2ccccc2Cl)oc1N1CCOCC1 | i | -1%
O=C(c1cc(COc2ccc3ncccc3c2)on1)N1CCC(O)CC1 | -30% | -20%
COC(=O)CC1=NN(c2nc3ccccc3s2)C(=O)/C1=C/N(C)C | i | -2%
Cc1ccc(C2OCC3(CO)COC(c4ccc(C)cc4)N23)cc1 (centres undefined) | i | -14%
O=C(CCCc1c[nH]c2ccccc12)N1CCOCC1 | -11% | -3%
COC(CNC(=O)c1ccc(CS(=O)(=O)c2ccc(C)cc2)o1)OC | i | -12%
COc1ccc(Nc2cc(=O)n(C3CCCCC3)c(=O)[nH]2)c(OC)c1 | nt | -27%
CSc1c(SCc2ccccc2)cnn(-c2ccccc2)c1=O | i | -28%
Cc1ccc(S(=O)(=O)N2C(=O)CCC2C(=O)NCc2ccco2)cc1 (centres undefined) | i | -5%
CC(C)c1nnc(NC(=O)c2nc(S(=O)(=O)Cc3ccc(F)cc3)ncc2Cl)s1 | i | -6%
Cc1ccc(NC(=O)[C@@H](NC(=O)c2cccc(S(=O)(=O)N3CCOCC3)c2)C(C)C)cc1C | -10% | -7%
NC(=O)COc1ccc(-c2noc(COc3ccccc3[N+](=O)[O-])n2)cc1 | i | -6%
COc1ccc(C(=O)C2CCCN(C(=O)c3csc(SC)n3)C2)cc1F (centres undefined) | i | -17%
COc1cc2cc(CNc3ccccc3)c(=O)n(CC(=O)Nc3cccc(Cl)c3C)c2cc1OC | -20% | -9%
Cc1ccc(NC(=O)NC(=O)CSc2nnc(-c3ccc(OC(F)F)cc3)n2N)c(C)c1 | -9% | -12%
O=C(C/C=N\O)Nc1ccc(Oc2ccccc2)cc1 | ? | 8%
CC(C)C[C@@H](CNCC(=O)[C@H](C)NC(=O)c1[nH]cnc1C(=O)N[C@@H](C)CN)NC(=O)c1nc[nH]c1C(=O)N[C@@H](CO)C(=O)O | -5% | 0%

More structures follow:
SMILES | Vaccinia mCherry | Vaccinia Venus
COc1ccc(O)c(-c2cc(-c3ccccc3[N+](=O)[O-])[nH]n2)c1 | ? | -19%
CC1=C(C(=O)N(C(C)C)C(C)C)CC(CC(=O)NCc2ccco2)C(=O)N1Cc1ccc(F)cc1 (centres undefined) | i | -16%
O=C(C1CC(c2ccc(Cl)c(Cl)c2)=NO1)N1CCC2(CC1)OCCO2 (centres undefined) | -4% | -12%
Cn1c(=O)c2c(SCC(=O)N3CCCC3)nc(-c3ccccc3)nc2n(C)c1=O | -5% | -8%
Cn1c(=O)c2c(SCC(=O)NCc3ccco3)nc(-c3ccccc3Cl)nc2n(C)c1=O | -1%&9% | -10%&17%
Oc1ccccc1C=NNC(=S)NC1CC2C=CC1C2 (centres undefined) | ? | ?
O=C(c1c[nH]c2ccccc12)C(Cl)c1ccccc1 (centres undefined) | ? | ?
COc1ccc(-c2nn(-c3ccccc3)cc2C(=O)N2c3ccc(C)cc3C3CN(C)CCC32)cc1 (centres undefined) | i | -6%
COc1ccccc1N(CC(=O)Nc1cc(C)cc(C)c1)S(C)(=O)=O | -7% | -10%
O=C(O)c1cccc(NC(=S)NC(=O)C(c2ccccc2)c2ccccc2)c1 | -12% | 0%
O=C(O)Cc1ccc(-n2cccc2)cc1 | i | -13%
COc1ccc(OC)c2c(C)cc(N3CCN(C(=O)c4ccc(C)cc4)CC3)nc12 | -10% | -6%
O=[N+]([O-])C1C(c2ccccc2)C12c1ccccc1-c1ccccc12 (centres undefined) | ? | ?
C=CCN1C(=O)[C@H]2CCC=C[C@H]2[C@@H]1c1cccc(C)c1 | -10% | -15%
Cc1ncsc1C(=O)Nc1cccc(C(F)(F)F)c1 | -18% | -4%
CC1=N/C(=C/c2ccco2)C(=O)O1 | -1% | 8%
COc1ccccc1CNC(=O)c1cccc(NC(=O)c2ccccc2)c1 | -11% | ?
CCC(C)Sc1ccc([C@@H]2[C@@H]3C(=O)N(C)C(=O)[C@@H]3[C@]3(C(=O)OC)CCCCN23)cc1OC (some centres undefined) | -17% | ?
Cc1ccc(-c2nnn(CCC(=O)Nc3ccc4c(c3)OCO4)n2)cc1 | -13% | -3%
COc1cccc(NC(=O)CNC(=O)c2ccc(C)o2)c1 | -14% | -6%
CCc1ccc(Cn2nnc(C(=O)Nc3cccc(C)c3)c2N)cc1 | -10% | -3%
COC(=O)c1sccc1-n1cccc1C(=O)NCc1ccccc1 | -14% | -5%
CCC(Oc1ccc2c(=O)c(-c3ccccc3OC)coc2c1)C(=O)OCc1ccccc1 (centres undefined) | i | -6%
CCN(CC)c1ccc(S(=O)(=O)N2CCOCC2)cc1NS(C)(=O)=O | -2% | -9%
O=C(NNC(=S)Nc1ccc(Br)cc1Cl)c1ccco1 | -13% | -6%
O=C(Cc1ccc(Br)cc1)Nc1ccc(S(=O)(=O)NCC2CCCO2)cc1 (centres undefined) | -19% | -14%
Fc1cccc(Cc2c(-c3cccc(Cl)c3)nc3ccc(Br)cn23)c1 | i | -4%
O=C(Nc1nc2ccccc2[nH]1)c1ccccc1F | 14% | -20%
CNC(=O)C1CCC(Cn2c(=O)c3sccc3n(CC(=O)Nc3cc(C)cc(C)c3)c2=O)CC1 (centres undefined) | ? | ?
CCCC1=Nc2cc(C(=O)N3CCC(C(=O)OCC)CC3)ccc2Sc2ccccc21 | -10% | -7%&-6%

Shown field by field: 2 of the compounds above
> O=C(O)c1cccc(NC(=S)NC(=O)C(c2ccccc2)c2ccccc2)c1
  Vaccinia mCherry: -12%
  Vaccinia Venus: 0%

> COc1ccc(-c2nn(-c3ccccc3)cc2C(=O)N2c3ccc(C)cc3C3CN(C)CCC32)cc1 (centres undefined)
  Vaccinia mCherry: i
  Vaccinia Venus: -6%

(further entries)
SMILES | Vaccinia mCherry | Vaccinia Venus
Cc1cccc(NC(=O)CSc2nnc(-c3ccco3)n2CC2CCCO2)n1 (centres undefined) | i | -11%
O=c1c2ccccc2c(-c2ccccc2)nn1-c1ccc(Cl)c(Cl)c1 | i | -14%
COc1cccc(C(=O)NC(=S)NCc2ccco2)c1 | -4% | -5%
O=C(O)COc1ccc(/C=N/NC(=O)c2ccccc2Br)cc1 | i | 2%
CCc1nc(C)cn1S(=O)(=O)c1cc(C)c(OC)c(C)c1C | -21% | ?
Cc1ccc(-c2nnc(-c3ccc(NC(=O)c4cccs4)cc3)o2)cc1 | -14% | -13%
COc1ccc(C(=O)COC(=O)CN2C(=O)C3C4C=CC(C4)C3C2=O)cc1 (centres undefined) | -21% | -2%
Cc1ccc(Cl)cc1NC(=O)Cn1cc2c(n1)CCCCC2 | 2% | -3%
Cc1cccc(C)c1NC(=O)C(c1ccc(C(F)(F)F)cc1)n1c(=O)c(-c2cc3ccccc3[nH]2)nc2ccccc21 (centres undefined) | -24% | -14%
CC(C)[C@H](NC(=O)N1CCn2c1nc1ccccc12)C(=O)N[C@@H](Cc1ccccc1)C(=O)O | -14% | -18%
O=C(O)c1cccc(CN2C(=O)SC(Nc3cccc4ccccc34)C2=O)c1 (centres undefined) | -4% | -14%
Cc1ccc(-c2ccc(=O)n(CCC(=O)N3CCN(c4ccccc4)CC3)n2)cc1 | -27% | -18%
NC(=O)Cn1cc(C=C2C(=O)NC(=O)NC2=O)c2ccccc21 | -15% | -3%
O=C(Nc1cccc(NC(=O)c2cccs2)c1)c1ccc([N+](=O)[O-])o1 | ? | ?
COc1ccc(C=NN=C2c3ccccc3-c3ccccc32)cc1OC | i | -22%
CC1(C)CC(=O)C2=C(C1)OC(N)=C(C#N)C2c1cn(-c2ccccc2)nc1-c1ccccc1 (centres undefined) | -24% | -15%
Cc1cccc(NC(=O)C2C3C=CC(O3)C2C(=O)O)c1C (centres undefined) | -29% | -2%
C/C(=N\NC(=O)c1cccc(Cl)c1)c1cccc(NC(=O)c2ccco2)c1 | nt | -21%
CCOC(=O)c1oc2c(CN3CCN(C)CC3)c(O)ccc2c(=O)c1-c1ccccc1OC | 7% | -5%

From PubChem
